Source: PubChem (several laboratories)
PABP polyA inh: blocks human PABP binding to poly(A) RNA; inhibition, % at 35 µM; fluorescence polarization; actives 1% (n = 290,000);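 active = 50% or more with normal probe brightness, or confirmed in later tests; inconclusive = above 50% with abnormal brightness, or retests that disagree; inactive = below 50% or failed in later tests; about a fifth of its hits are not listed in these tables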;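 note: calls also rest on retests at 20 µM and on dose response follow-up; controls were probe without protein and protein plus probe with vehicle; some compounds called inactive have numbers as strong as hits; many hits fall short of the cut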
CSC inhib: blocks cancer stem cells; cancer stem cell-like cells viability, luminescence; inhibition, % at 7.5 µM; actives 1.1% (n = 300,000);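 active = mean at 75% or more and at least half the replicates too; inconclusive = mean and replicates disagree; tested in HMLE shEcad cells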;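 note: 0% = median of negative and 100% = median of positive control wells; the first replicate is given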
Rce1 inhib: inhibitors of yeast Ras-converting enzyme. yeast membranes, quenched prenylated peptide cleavage fluorescence. calls only. actives 0.27% (n = 290,000);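 active = fall in fluorescence gain of 50% or more versus controls, with final raw signal at or below 3038400; inconclusive = same 50% fall but final raw signal above 3038400; inactive = fall in fluorescence gain under 50%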;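 note: plate controls were neutral control wells for no effect and wells lacking membranes for full effect; tested at 10 µM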
Target sequence (Q03530 whole entry, looked up): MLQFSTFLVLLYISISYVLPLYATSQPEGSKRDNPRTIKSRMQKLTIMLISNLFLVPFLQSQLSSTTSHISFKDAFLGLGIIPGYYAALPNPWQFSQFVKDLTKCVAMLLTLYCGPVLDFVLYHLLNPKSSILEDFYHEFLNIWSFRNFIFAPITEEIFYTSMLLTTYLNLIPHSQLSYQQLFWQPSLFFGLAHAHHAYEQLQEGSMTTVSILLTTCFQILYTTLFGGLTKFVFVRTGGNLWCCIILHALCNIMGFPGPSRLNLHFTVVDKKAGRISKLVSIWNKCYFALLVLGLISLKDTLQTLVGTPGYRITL
MT1-MMP act inh: MT1-MMP (human) activation inhibition; actives 0.061% (n = 360,000); GFP/RFP ratio change, % at 20 µM; P50281; HT1080 RFP-PRO-GFP cells, GFP/RFP ratio fluorescence, overnight; percent of plate control window, DMSO zero;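 active = GFP/RFP ratio change of at least 30% with cell ATP level not reduced by more than half and red fluorescence within 50% of control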; note: strong numbers were not always called active
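Material – HT1080 RFP-PRO-GFP cells · Control set – DMSO wells and RFP-L50D-GFP cells · Incubation – overnight cell settling, then overnight compound exposure, 37 °C, 5% CO2 · Compound dosing – single-point 20 µM compound, 1% DMSO · Read-out – GFP/RFP fluorescence ratio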
eIF4H inh: inhibitors of RNA binding by human eIF4H; Q15056; eIF4H fluorescence polarization binding assay; inhibition, % at 35 µM; actives 0.94% (n = 290,000);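 active = 50% or more with normal probe brightness, or confirmed in later tests; inconclusive = above 50% with abnormal brightness, or retests that disagree; inactive = below 50% or failed in later tests; about a fifth of its hits are not listed in these tables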;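 note: calls also rest on retests at 20 µM and on dose response follow-up; 0% = protein and probe with vehicle and 100% = probe without protein; strong numbers were not always called active; many hits fall short of the cut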
Yeast UUG start: yeast start codon fidelity modulation. actives 0.13% (n = 350,000). S. cerevisiae UUG-firefly luciferase reporter, luminescence/redox ratio. activity score, % at 18.7 µM;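 active = replicate mean at a twofold rise or more, about +100% in these data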;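 note: firefly luciferase made from a UUG start codon reports start codon fidelity; reporter light over untreated wells divided by growth signal over untreated wells; some hits fall short of that in this replicate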
Env fusion inh: blocks HIV Env-driven cell-cell fusion; inhibition, % at 12.3 µM; actives 1.1% (n = 360,000); HeLa-JRFL Env/CEM21 cell fusion, luciferase;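 active = mean replicate inhibition score of at least 50 and every replicate individually at or above 50; inconclusive = only one of the two criteria met; inactive = mean below 50 and not all replicates reaching 50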;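 note: 0% = plate neutral controls and 100% = maraviroc near 300 nM; one replicate is shown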
eIF4H inh retest: recorded beside eIF4H inh, whose call it bears; inhibition, %; compound at 20 µM; confirmation average;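 mean of two retest wells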
PABP polyA inh retest: recorded beside PABP polyA inh, whose call it bears; inhibition, %; compound at 20 µM; confirmation repeats;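 mean of two retest wells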
MT1-MMP act inh RFP: recorded beside MT1-MMP act inh, whose call it bears; RFP signal change, %; measured here: RFP expression control read;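 0 = vehicle wells; hits needed this value within 50% of zero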
Numbers without * were called inactive; i = inactive; ? = inconclusive; · = not tested or not shown. Some of the compounds tested. The share of hits here may be higher or lower than overall.

SMILES	PABP polyA inh	CSC inhib	Rce1 inhib	MT1-MMP act inh	MT1-MMP act inh RFP	eIF4H inh	Yeast UUG start	Env fusion inh	others
O=C(COc1ccc(NC(=O)c2ccccc2)cc1)c1ccccc1	-3	3	i	3	1	90	-14	-5	eIF4H inh retest=5;PABP polyA inh retest=1
CCN1CCn2c1nc(N1CCCCC1)nc2=O	-9	-2	i	0	3	-7	7	·
CCOC(=O)C1CC2CC(C1)CN(C(=O)C1CCCCC1)C2 (stereo not drawn)	-6	5	i	1	7	-4	·	11
CCOC(=O)c1nc(NCc2ccccc2F)c2ccccc2n1	3	·	i	0	-2	3	·	-6
CCCCC(=O)Nc1nnc(S(=O)(=O)N(C)Cc2ccco2)s1	·	-18	i	-1	0	·	-16	-7
CSc1nsc2nc(=O)c(/C=C3\C=Nc4ccccc43)c(N)n12	-1	30	i	5	3	?	4	-30
CC(=O)Nc1sc(N)nc1-c1ccccc1	0	-1	i	4	4	-5	-25	6
CCn1c(=O)c(=O)[nH]c2cc(C(=O)N3CCN(c4ccccc4F)CC3)ccc21	6	-9	i	25	8	6	5	-9
O=C1OC(c2ccc(Br)cc2)=N/C1=C\c1ccco1	2	-10	i	-2	4	-3	-16	-3
CC(C)(C)c1cc2nc3c(c(=O)n2[nH]1)CN(Cc1ccccc1)C3=O	-4	4	·	-4	-2	-1	-11	3
CCc1ccc2c(c1)c1nc(C)sc1n2CC	26	-9	i	0	1	0	-8	·
O=C1CC(c2ccccc2)c2ccccc21 (stereo not drawn)	-1	·	i	0	4	-6	·	14
Cc1ccc(NC(=O)CC2NCCNC2=O)cc1 (stereo not drawn)	-11	0	i	2	3	-15	-15	·
N#Cc1c(/N=C/c2ccc(-c3ccc(C(=O)O)c(Cl)c3)o2)sc2c1CCCC2	·	8	·	2	1	·	-5	·
Cc1cnc(C(=O)N(c2ccccc2)C(c2ccccc2)c2nc3ccccc3[nH]2)cn1 (stereo not drawn)	·	·	·	-1	-1	·	-11	-10

The closing two entries of the section above come first, to join the parts:
SMILES	PABP polyA inh	CSC inhib	Rce1 inhib	MT1-MMP act inh	MT1-MMP act inh RFP	eIF4H inh	Yeast UUG start	Env fusion inh	others
N#Cc1c(/N=C/c2ccc(-c3ccc(C(=O)O)c(Cl)c3)o2)sc2c1CCCC2	·	8	·	2	1	·	-5	·
Cc1cnc(C(=O)N(c2ccccc2)C(c2ccccc2)c2nc3ccccc3[nH]2)cn1 (stereo not drawn)	·	·	·	-1	-1	·	-11	-10
CC(C)CCNC(=O)NC(=O)COC(=O)C1CCN(S(=O)(=O)c2ccccc2F)CC1	-9	-3	i	-4	0	-3	-6	9
O=C(COC(=O)c1cc(Cl)ccc1O)NNC(=O)c1ccc([N+](=O)[O-])cc1	·	-4	i	0	4	·	-4	-20
Cc1c(C(=O)Nc2nc3ccccc3[nH]2)oc2c(Cl)cccc12	-2	10	i	15	3	3	-14	-19
CNC(=O)COC(=O)c1ccc(Cl)c(S(=O)(=O)N2CCCC2)c1	10	-1	i	2	2	4	·	-4
CN(C)CCOc1ccc(-c2c(-c3ccccc3)sc3ccccc23)cc1	·	142*	·	-5	-8	·	-29	-8
O=C(Oc1ccc(OC(=O)c2ccncc2)cc1)c1ccncc1	·	-3	i	-1	-2	·	-16	2
CCOC(=O)N/N=C/c1c(C)nn(-c2cccc(C(F)(F)F)c2)c1Cl	1	68	i	2	-11	-1	·	-139
Cc1ccc(-c2nc3ncccc3o2)cc1N	-11	-23	i	2	5	-1	-4	-22
Cc1cc(C)c(NC(=O)CN(C)C(=O)CCN2C(=O)C3CCCCC3C2=O)c(C)c1 (stereo not drawn)	·	·	·	-1	3	·	-10	32
Cc1cc(Cc2ccc([N+](=O)[O-])cc2)c(C)cn1	-1	-11	i	6	6	-1	-13	21
COc1ccc(NC(=O)c2cc(-c3ccc(C)cc3)on2)cc1OC	15	-9	i	4	1	23	-8	-51
Cc1cc(C)n(Cc2ccc(Cl)c(Cl)c2)c(=O)c1S(=O)(=O)c1ccccc1	-10	·	i	0	1	-14	·	·
CC1(c2ccc3noc(-c4ccccc4)c3c2)OCCO1	15	-2	i	0	-9	-2	-3	·
Cc1onc(-c2ccccc2Cl)c1C(=O)Nc1sc2c(c1C#N)CCC2	2	18	i	11	27	-2	-9	25
CO/N=C(/CNC(=O)c1ccc(Cl)cc1Cl)c1ccc(Cl)cc1	-5	-8	i	4	-1	-3	-4	·

Structures shown so far containing a nitro group on carbon, in the order listed:
SMILES	PABP polyA inh	CSC inhib	Rce1 inhib	MT1-MMP act inh	MT1-MMP act inh RFP	eIF4H inh	Yeast UUG start	Env fusion inh	others
O=C(COC(=O)c1cc(Cl)ccc1O)NNC(=O)c1ccc([N+](=O)[O-])cc1	·	-4	i	0	4	·	-4	-20
Cc1cc(Cc2ccc([N+](=O)[O-])cc2)c(C)cn1	-1	-11	i	6	6	-1	-13	21

Next part.
SMILES	PABP polyA inh	CSC inhib	Rce1 inhib	MT1-MMP act inh	MT1-MMP act inh RFP	eIF4H inh	Yeast UUG start	Env fusion inh	others
COc1cc(C2NC(=O)NC(c3ccccc3)=C2C(C)=O)c(Br)cc1OCC(N)=O (stereo not drawn)	6	-13	i	-2	-2	-44	4	-14
COC(=O)C1SCC2C(=O)N(Cc3ccc(Cl)c(Cl)c3)CC(=O)N21 (stereo not drawn)	0	3	i	2	5	-2	4	6
COc1ccc(NC(=O)NS(=O)(=O)c2ccc(C)cc2)cc1OC	·	-12	·	8	5	·	-1	-2
OCCOc1ccc(C2=NCCO2)cc1	6	5	i	-4	-4	-6	-11	·
Cc1cc(=O)[nH]c(SCC(=O)N2CCC(C(N)=O)CC2)n1	60	0	i	0	2	0	-26	·	eIF4H inh retest=2;PABP polyA inh retest=7
O=C(CSc1nnc(CNC(=O)c2ccccc2F)o1)NCC1CCCO1 (stereo not drawn)	-1	·	i	-4	-16	2	-5	13
O=C(C1CCN(S(=O)(=O)c2ccc3c(c2)OCCO3)CC1)N1CCc2ccccc21	-6	-4	i	2	-8	0	-6	·
CCOC(=O)C(Cc1ccccc1)c1ccnc2nc(N)nn12 (stereo not drawn)	-14	-3	i	3	1	-1	·	7
CCC(C)(C(=O)Nc1ccccc1C)N(C(=O)CNC(C)=O)c1ccccc1C (stereo not drawn)	-8	-16	i	-2	-1	7	·	-13
COc1cc(C(=O)N(C)C2CCCN(Cc3ccccc3F)C2)cc(OC)c1OC (stereo not drawn)	7	-2	i	9	2	-7	-9	14
Cc1nn(C(C)(C)C)c(OC(=O)CC(C)C)c1S(=O)(=O)c1ccccc1	-6	15	i	-1	4	-2	-10	-10
CC(C)CNC(=S)NNC(=O)c1csc2ccccc12	-2	0	i	8	3	13	-13	-30
CCN(CC)S(=O)(=O)c1ccc(N2CCOCC2)c(NS(=O)(=O)c2cc(C(C)(C)C)ccc2C)c1	1	9	i	-24	-19	-5	-20	20
CC(NC(=O)c1ccc(=O)oc1)c1ccccc1 (stereo not drawn)	9	-17	i	1	3	5	-4	·
CCOC(=O)c1sc(=S)n(-c2ccc(C)cc2)c1N	-17	-23	i	-10	-8	-4	-17	-5
O=C(CCCCl)NC(=S)Nc1cc(C(F)(F)F)ccc1N1CCOCC1	1	21	·	-9	-11	-9	·	-2
CCn1c(Cc2ccccc2)nnc1SCC(=O)Nc1ccccc1O	35	-8	i	4	1	8	-10	9
CCCCc1cc(=O)oc2cc(C)cc(OCC(=O)N3C[C@H]4C[C@@H](C3)c3cccc(=O)n3C4)c12	-4	-3	·	-5	0	33	-9	·
COc1ccc(N2CCN(CCOc3ccc4c(C)cc(=O)oc4c3)CC2)cc1	-5	-5	i	2	0	-7	-9	14
CCc1nc2c(c(SC)nn2-c2ccccc2)c(N)c1C(=O)OC	-1	1	i	0	-2	-8	-12	·
Cc1ccc(S(=O)(=O)N2CCOCC2)cc1NC(=O)COC(=O)c1cnc(Cl)c(Cl)c1	·	·	·	-1	-2	·	2	-17
COc1ccc(C)cc1NC(=O)C(OC(=O)Cn1cnc2c1c(=O)n(C)c(=O)n2C)c1ccccc1 (stereo not drawn)	·	-17	i	-1	0	·	·	-7
Nc1nc(Nc2ccc(Cl)cc2)nc(NCCO)c1[N+](=O)[O-]	11	-7	i	0	-5	-3	-15	-47
CN(C)c1ccc(/C=N/NC(=O)C(O)(c2ccccc2)c2ccccc2)o1	19	-7	i	-1	6	5	-14	-44
O=C(CSc1nc2ccc(NC(=O)c3ccccc3C(=O)O)cc2s1)Nc1ccc(F)c([N+](=O)[O-])c1	11	·	i	-3	-4	-8	-11	10
COc1cc2c(cc1OC)C(=S)NC1(CCCC1)C2	-4	-7	i	-7	-3	-7	-24	8
Cc1ccc(N2C(=O)CC(NNC(=O)c3cccc(S(=O)(=O)N4CCCC4)c3)C2=O)cc1 (stereo not drawn)	0	-12	i	-7	2	-10	2	3
Cc1cccc(-n2c(CNC(=O)c3cccc([N+](=O)[O-])c3C)n[nH]c2=S)c1	-11	-13	i	0	1	-1	-11	-4
CC1(C(=O)NS(=O)(=O)C2CC2)CCCN(C(=O)c2ccccc2)C1 (stereo not drawn)	·	·	·	2	2	·	-12	6

Quoted at random: 7 entries already listed.
SMILES	PABP polyA inh	CSC inhib	Rce1 inhib	MT1-MMP act inh	MT1-MMP act inh RFP	eIF4H inh	Yeast UUG start	Env fusion inh	others
Nc1nc(Nc2ccc(Cl)cc2)nc(NCCO)c1[N+](=O)[O-]	11	-7	i	0	-5	-3	-15	-47
COc1ccc(N2CCN(CCOc3ccc4c(C)cc(=O)oc4c3)CC2)cc1	-5	-5	i	2	0	-7	-9	14
COc1cc2c(cc1OC)C(=S)NC1(CCCC1)C2	-4	-7	i	-7	-3	-7	-24	8
CCn1c(Cc2ccccc2)nnc1SCC(=O)Nc1ccccc1O	35	-8	i	4	1	8	-10	9
CC1(C(=O)NS(=O)(=O)C2CC2)CCCN(C(=O)c2ccccc2)C1 (stereo not drawn)	·	·	·	2	2	·	-12	6
O=C(CCCCl)NC(=S)Nc1cc(C(F)(F)F)ccc1N1CCOCC1	1	21	·	-9	-11	-9	·	-2
CCc1nc2c(c(SC)nn2-c2ccccc2)c(N)c1C(=O)OC	-1	1	i	0	-2	-8	-12	·
